Compound activity from PubChem.
T cruzi repl: T. cruzi replication inhibition | T. cruzi beta-gal in NIH3T3, luminescence, 90 h | inhibition, % (concentration not given with the values) | 300,000 compounds, 1.4% hits;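 active = mean inhibition across valid replicates above about 55%, limit read from the data; inconclusive = mean below that limit but half or more replicates reach it; inactive = mean below it, under half of replicates reach it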;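 note: signal also drops with host cell toxicity which is not excluded here; 0% = plate median of DMSO wells and 100% = zero luminescence signal; higher percent means less beta-gal luminescence so fewer parasites; stock transfer was 50 nL into about 50 µL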
Beta cell apopt: beta cell apoptosis inhibition | INS-1E cytokine-induced death, ATP luminescence, 48 h; percent of positive-control rescue, neutral wells zero | protection from apoptosis, % (test concentration not listed) | 300,000 compounds, 0.8% hits | AID 435005;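 active = all replicates at 75% or more, or half of them and the mean; inconclusive = half reach 75% but not the mean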;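 note: 0% = cytokine-treated negative control wells and 100% = positive control rescue; higher means more ATP so stronger rescue from cytokine killing; wells of about 40 µL received 100 nL stock; the first replicate is given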
RanGTP-Imp inh: inhibitors of RanGTP-importin-beta interaction, primary screen, biochemical, FRET, CFP-Ran, YFP-importin-beta, homogeneous | cell-free CFP-Ran/YFP-importin-beta FRET ratio | inhibition, % (test concentration not listed) | 300,000 compounds, 1.1% hits | AID 2216;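 active = most replicates above 15%; inconclusive = exactly half above 15%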;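 note: 0% = DMSO wells and 100% = Ran loaded with GDP instead of GTP; wells of about 40 µL received 100 nL stock; the first replicate is given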
Calb FLC: C. albicans growth modulation with fluconazole; AID 1979; 300,000 compounds, 0.57% hits; C. albicans CaCi-2 (fluconazole-resistant clinical isolate) + fluconazole, Alamar Blue growth, 48 h; growth inhibition, % (test concentration not listed);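 active = most replicates above 75%; inconclusive = exactly half above 75%; inactive = most below 75%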;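 note: all wells also contain fluconazole at 8 µg/ml as a sub-toxic cotreatment; 0% = median of DMSO wells and 100% = median of geldanamycin control wells; wells of about 8 µL received 7.5 nL stock; the first replicate is given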
MLL AF4-AF9 inh: blocks AF4 peptide binding to human AF9; P42568; AlphaScreen, biotin-AF4 peptide binding to FLAG-AF9; inhibition, % at 10 µM; 350,000 compounds, 0.47% hits;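 active = every replicate reaching a set inhibition limit, whatever the replicate mean, cut at about 25% in these data; inconclusive = mean inhibition reaches that limit but some replicates miss it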;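 note: 0% = plate neutral control median and 100% = total signal loss; the record names both 10 and 1 µM as test concentration; the first replicate is given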
Target sequence (P42568 whole entry, looked up): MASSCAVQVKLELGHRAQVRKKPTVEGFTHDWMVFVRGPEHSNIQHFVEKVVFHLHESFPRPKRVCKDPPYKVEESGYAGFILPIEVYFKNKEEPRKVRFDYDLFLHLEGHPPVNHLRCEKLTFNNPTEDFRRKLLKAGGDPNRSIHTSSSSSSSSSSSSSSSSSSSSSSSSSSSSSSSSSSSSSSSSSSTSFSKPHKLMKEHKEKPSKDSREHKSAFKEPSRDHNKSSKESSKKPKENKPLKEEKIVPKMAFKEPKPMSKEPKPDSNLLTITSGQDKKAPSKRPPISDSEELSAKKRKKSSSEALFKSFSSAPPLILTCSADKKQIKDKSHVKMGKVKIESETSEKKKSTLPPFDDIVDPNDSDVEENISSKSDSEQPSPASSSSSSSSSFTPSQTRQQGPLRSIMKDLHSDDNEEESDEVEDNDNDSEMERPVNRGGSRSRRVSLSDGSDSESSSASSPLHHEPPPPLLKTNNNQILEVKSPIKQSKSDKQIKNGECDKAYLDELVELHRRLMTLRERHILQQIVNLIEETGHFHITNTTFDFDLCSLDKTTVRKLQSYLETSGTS
LANA-H2A inh: blocks KSHV LANA binding to histone H2A/H2B; cell-free LANA-H2A/H2B peptide, fluorescence polarization; 320,000 compounds, 0.6% hits; inhibition, % (concentration not given with the values); AID 2629; in the data active = inhibition mostly above about 10%, no sharp cut-off; inactive = mostly below about 6.7%;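 note: stock transfer was 7.5 nL into about 10 µL; 0% = median of vehicle wells and 100% = median of positive control wells; one replicate is shown; the record names a cut of 25% in any replicate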
A1 inh: inhibitors of the anti-apoptotic protein A1, read as caspase activation | MEF A1-2A-BIM cells, Caspase-Glo 3/7 luminescence, 3 h; percent of clofoctol response, vehicle zero | 330,000 compounds, 0.066% hits | caspase activation, % (concentration not given with the values);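 active = over half of replicate activation scores above 10%, or exactly half above 10 with the replicate mean above 10; inconclusive = replicate mean below 10 yet half the replicates above 10; inactive = over half of replicates below 10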;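 note: wells of about 30 µL received 50 nL stock; many hits fall short of the cut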
Vif A3G: HIV-1 Vif–A3G interaction blockers – biochemical, TR-FRET, GST-Vif 1-94, biotin-A3G peptide, dose response retest, primary screen (AID 1117319) | TR-FRET GST-Vif / biotin-A3G peptide binding; higher % means a stronger effect; test concentration not given here; strong numbers were not always called active | inhibition, %, or IC50 in µM where a hit was titrated | 260,000 compounds, 0.57% hits;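 active = above the screen mean plus three standard deviations and confirmed in dose response; inconclusive = results disagree or hit not tested in dose response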;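 note: Vif residues 1-94 fused to GST binding biotinylated APOBEC3G peptide 110-148; 0% = full assay without inhibitor and 100% = GST in place of GST-Vif; retest series ran down from 100 µM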
Numbers without * were called inactive; u = inconclusive; x = no result given.

compound	T cruzi repl	Beta cell apopt	RanGTP-Imp inh	Calb FLC	MLL AF4-AF9 inh	LANA-H2A inh	A1 inh	Vif A3G
Cc1ccn(C(=O)c2cc3cc(Cl)ccc3oc2=O)n1	-10	-6	0.0	5	x	2.0	-1.1	0%
COc1ccc(C2C(C(C)=O)=C(O)C(=O)N2C)c(OC)c1 (stereo not given)	-1	-5	1.4	-3	x	0.3	-0.2	3%
CCOC(=O)c1cc2sc(C)cc2n1CC(=O)Nc1ccc2c(c1)OCCO2	26	1	0.5	1	1.6	-12	0.0	-10%
Cc1cc(C(=O)CSc2nc3ccccc3n2C)c(C)n1C	-4	-1	-1.0	9	x	4.8	-0.1	6%
CCC1NC(C(=O)O)Cc2c1[nH]c1ccccc21 (stereo not given)	-8	-3	5.7	-4	2.6	4.2	0.2	x
Cc1ccc(CNC(=O)[C@H](Cc2ccccc2)NC(=O)c2ccco2)cc1	x	1	x	x	-2.2	0.1	-0.5	5%
Cc1cc(C)n2nc(C(=O)N(C)c3c(N)n(Cc4ccccc4)c(=O)[nH]c3=O)nc2n1	-16	-3	1.5	x	0.1	2.4	-0.5	-2%
O=C(CSc1nc2c(cnn2-c2ccc(F)cc2)c(=O)[nH]1)Nc1nccs1	-1	-2	-1.4	2	-12	1.2	0.7	31%
COc1ccccc1NC(=O)CCn1c(=S)oc2ccccc21	4	3	-0.7	-5	-0.6	2.3	0.6	-2%
CCC1(C)Cc2ccccc2-c2[nH]c(=S)[nH]c(=O)c21 (stereo not given)	4	-9	-0.6	5	-4.8	4.1	0.3	x

Following part.
compound	T cruzi repl	Beta cell apopt	RanGTP-Imp inh	Calb FLC	MLL AF4-AF9 inh	LANA-H2A inh	A1 inh	Vif A3G
O=C(O)c1ccccc1C(=O)c1ccc(N2CCCC2)c([N+](=O)[O-])c1	0	x	-4.1	-3	-2.2	-1.0	0.0	5%
C/C(Cl)=C\COc1cc(C)nc2c(Br)cccc12	29	7	-1.1	-12	-7.5	3.6	1.1	-1%
CC(C)COc1ncnc2c1sc1nc3c(cc12)COC(C)(C)C3	-16	-4	-2.9	-3	x	1.7	-0.1	-3%
O=C(COc1ccc(Cl)cc1)Nc1ccc(NC(=O)c2ccco2)cc1	5	2	1.4	0	-1.8	1.1	-0.3	x
Cc1ccccc1OCC(=O)N1CCC2(CC1)CC(=O)c1ccccc1O2	-1	0	-2.8	3	-15	-5.9	-2.0	1%
O=C(/C=C/c1ccc(F)cc1)Nc1cc(S(=O)(=O)N2CCOCC2)ccc1N1CCCC1	7	3	4.5	0	x	-1.4	0.1	x
Cc1ccsc1C(=O)N[C@@H](C)c1nnc2ccccn12	-8	-4	0.7	2	3.9	-3.9	-1.0	-5%
COc1cc(NC(=O)c2ccccc2)c(OC)cc1NC(=O)CN1C(=O)NC2(CCCCC2C)C1=O (stereo not given)	x	4	x	x	4.1	4.1	0.3	2%
Cc1ccc(C(=O)N2CCN(c3ccc(C(F)(F)F)cn3)CC2)o1	x	2	x	x	3.7	-1.4	1.7	x
Cc1cc(C(=O)OCC(=O)Nc2c(Cl)cccc2C(F)(F)F)c(C)o1	-12	-7	3.1	-3	-0.5	-15	-0.7	4%

Continued:
compound	T cruzi repl	Beta cell apopt	RanGTP-Imp inh	Calb FLC	MLL AF4-AF9 inh	LANA-H2A inh	A1 inh	Vif A3G
COC(=O)c1ccc(CSc2nc3ccccc3c(=O)n2Cc2ccco2)o1	21	-7	1.2	-12	x	-4.4	-0.4	9%
COc1ccc(C2=NOC(C(=O)Nc3cccnc3Cl)C2)cc1 (stereo not given)	-17	-7	2.7	-8	1.3	-0.4	0.2	-7%
O=S(=O)(NCc1ccccc1)c1ccc(F)cc1Br	-5	-1	-0.7	0	-3.0	4.7	0.1	4%
Cc1cc(OCCOCCNC(C)C)cc(C)c1Cl	39	-7	1.5	3	x	5.0	-0.3	5%
CCN(CC)c1ccc(NC(=O)COC(=O)c2cccs2)cc1	-11	0	0.0	u	x	-1.3	-2.1	1%
O=C1N(c2ccccc2)C[C@@H]2C[C@@H](c3cccs3)N3CCC[C@@]123	-13	9	-0.1	1	5.3	4.4	-0.4	x
CCOC(=O)c1cnc(SC2CCc3ccccc3C2=O)nc1N (stereo not given)	-6	-3	2.1	1	x	-1.7	-0.1	5%
O=C(NCc1ccccc1Cl)c1ccc(Cn2cc(C(F)(F)F)ccc2=O)cc1	-10	2	0.6	9	x	3.9	-0.8	-1%
O=C(COC(=O)c1ccc(S(=O)(=O)Nc2ccccc2)cc1)NCc1ccco1	-3	-2	-0.6	11	x	-2.3	0.8	4%
COc1ccc(C(C)C)cc1S(=O)(=O)N1CCC(C(=O)NCc2cccnc2)CC1	4	1	1.6	2	-0.5	-10	-0.8	x

The results go on:
compound	T cruzi repl	Beta cell apopt	RanGTP-Imp inh	Calb FLC	MLL AF4-AF9 inh	LANA-H2A inh	A1 inh	Vif A3G
Cc1ccc(C2C3=C(NCCN=C3c3ccccc3)C(=O)N2c2ccccc2)cc1 (stereo not given)	15	7	-2.4	10	x	-4.4	-1.4	8%
O=C(Nc1ccc(Cl)c(S(=O)(=O)N2CCOCC2)c1)c1ccc(OCC2CCCO2)cc1 (stereo not given)	-27	4	u	38	x	1.5	-0.4	2%
Cc1cccc(C)c1NC(=O)c1ccc2c(c1)CCN2S(C)(=O)=O	-11	-7	1.9	3	1.7	2.2	0.3	-6%
CCn1c(NC(=O)C(C)C)c2ccccc2nc1=O	-11	-2	7.2	-7	5.7	11*	0.0	-9%
O=C(NCc1ccccc1)c1cccc(COc2ccccc2Cl)c1	17	3	2.7	14	x	-3.6	0.7	-6%
COc1ccccc1/C=N\Nc1cc(C)nc(-n2nc(C)cc2C)n1	45	86*	-0.8	3	x	2.1	-4.4	x
CCCCn1c(SCC(=O)Nc2cc(C)on2)nc2cc(S(N)(=O)=O)ccc21	x	1	x	x	-1.0	1.6	-0.1	x
COc1cc(NC(=O)COc2ccccc2[N+](=O)[O-])ccc1NC(=O)c1ccco1	8	0	0.5	14	-0.7	-10	0.9	x
Cc1cnc(N2C(=O)c3ccc([N+](=O)[O-])cc3C2=O)s1	-6	x	-1.3	-23	-0.7	2.7	1.1	-9%
CCCn1c(=O)c(C(=O)NCc2ccc(OC)c(OC)c2)c(O)c2ccccc21	-13	1	u	18	x	2.0	0.4	8%

Going on with the list:
compound	T cruzi repl	Beta cell apopt	RanGTP-Imp inh	Calb FLC	MLL AF4-AF9 inh	LANA-H2A inh	A1 inh	Vif A3G
O=C(Cc1ccc(NS(=O)(=O)c2ccc(F)cc2)cc1)NCc1cccnc1	2	-3	0.4	-15	5.1	-1.6	-0.1	x
S=c1[nH]c(-c2ccccc2)cn1/N=C/c1ccncc1	-7	1	2.7	0	1.5	7.1	0.0	-4%
COc1ccc(/C=N/NC(=O)c2cccc(NC(=O)c3ccccc3)c2)c(C(=O)O)c1OC	-11	-6	-0.6	4	x	6.2	0.1	3%
CC(C)CN(C(=O)CC(C)c1ccccc1)c1c(N)n(Cc2ccccc2)c(=O)[nH]c1=O (stereo not given)	-13	2	x	-3	-4.3	-7.5	1.7	-9%
Cc1ccc(NC(=O)Cn2c3ccc(F)cc3c3nc4n(c(=O)c32)CCS4)cc1F	6	-4	-0.8	-2	1.3	2.9	1.3	10%
Cc1ccc2c(c1)N(CC(=O)NCC1CCCO1)C(=O)C(C(C)C)O2 (stereo not given)	5	-2	2.4	-3	-0.2	3.3	0.9	x
CCN(CC)S(=O)(=O)c1ccc(NCc2ccccc2)nc1	-5	3	-3.6	-5	x	-4.1	-0.1	6%
O=C(N[C@@H]1CCC(=O)N(CC[C@H](Sc2ccc(Br)cc2)c2ccccc2)CC1)OCc1ccccc1	x	1	x	x	-19	0.6	0.7	x
CCOc1ccc(S(=O)(=O)NC(C)C(=O)NCc2ccccn2)cc1 (stereo not given)	-8	-4	0.7	2	-0.5	-2.3	0.2	x
Cn1c(-c2ccccc2[N+](=O)[O-])[n+](C)c2ccccc21	6	4	0.8	24	-2.3	7.4	2.1	16%

New compounds follow:
compound	T cruzi repl	Beta cell apopt	RanGTP-Imp inh	Calb FLC	MLL AF4-AF9 inh	LANA-H2A inh	A1 inh	Vif A3G
Cc1cccc(N2CCN(C(=O)CCN3C(=S)NC(C)(C)CC3C)CC2)c1C (stereo not given)	4	-1	1.0	-3	-0.8	-1.9	0.6	20%
Cn1c(SCc2ccc(C(=O)Nc3nccs3)cc2)nnc1-c1ccccc1	10	7	-1.8	-4	x	7.0	0.3	-3%
CC1Cc2nc(SCC(N)=O)n(Cc3ccccc3)c(=O)c2S1 (stereo not given)	-13	-1	5.1	1	-0.9	3.1	-0.3	x
Cc1ccccc1-c1nc(CN(Cc2c(C)nn(C)c2C)C2CC2)c(C)o1	21	1	-2.3	-7	4.5	-3.4	-0.8	-5%
CCCCc1n[nH]c(=S)n1Cc1ccccc1	-8	-4	0.5	-11	-5.1	1.3	0.8	4%
CC(=O)OCCn1c(Br)nc2c1c(=O)[nH]c(=O)n2C	-6	-5	-0.6	-3	x	1.7	-0.2	-3%
CCOC(=O)c1cnc(-n2nc(C)cc2C)nc1Nc1ccc(OC)cc1	47	4	-0.4	u	x	-3.8	-0.2	-2%
COc1ccc(Br)cc1/C=N/NC(=O)C(c1ccncc1)N1CCOCC1 (stereo not given)	0	-5	2.9	1	-22	0.8	0.4	x
CC(=O)NC(c1cccc([N+](=O)[O-])c1)c1c(OC(C)=O)ccc2ccccc12 (stereo not given)	-15	1	-4.2	3	x	0.6	-0.5	15%
O=S1(=O)CCN(Cc2ccccc2C(F)(F)F)CC1	1	-3	0.5	16	-0.9	2.8	-0.5	2%

Remaining list, next part
compound	T cruzi repl	Beta cell apopt	RanGTP-Imp inh	Calb FLC	MLL AF4-AF9 inh	LANA-H2A inh	A1 inh	Vif A3G
COc1ccc(O)c(/C=N/NC(=O)CSc2nnc(C)n2-c2ccccc2)c1	7	35	1.4	30	x	-3.7	0.4	2%
Clc1ccccc1OCc1nc(-c2ccc(Br)o2)no1	2	-7	-0.4	-7	0.8	-4.2	1.3	0%
O=C1CCCN1CCCN=c1c([N+](=O)[O-])nn(-c2ccc(Cl)cc2)n1O	68*	x	-3.6	85*	2.9	x	x	x
O=C(Nc1ccccc1-c1ccccc1)c1cccc(C(F)(F)F)c1	11	2	-2.2	-1	x	-1.0	0.2	x
